# High-throughput results: PubChem BioAssay, National Center for Advancing Translational Sciences (NCATS)
# NPR1 antag – Natriuretic polypeptide receptor (hNpr1) antagonism - Primary qHTS. Atrial natriuretic peptide receptor 1 (Homo sapiens), P16066. HEK293 hNpr1 GloSensor cGMP, ANP-stimulated luminescence. Potency, µM (doses to about 46.3 µM), for inactives: at the highest dose activity change, negative = inhibition, most hits filed as inhibitors. actives 1.6% (n = 76,000). AID 1347048, 2019; active = well fitted inhibition curve with a large enough effect; inconclusive = small, poorly fitted or top-dose-only effect; inactive = no such curve, though single readings can be large or run the other way;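 note: nearly all actives have a fitted effect of over 60% in size; nearly all hits also lower the signal before the agonist is added; a reference antagonist and vehicle were the controls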
# Target sequence (P16066 whole entry, looked up): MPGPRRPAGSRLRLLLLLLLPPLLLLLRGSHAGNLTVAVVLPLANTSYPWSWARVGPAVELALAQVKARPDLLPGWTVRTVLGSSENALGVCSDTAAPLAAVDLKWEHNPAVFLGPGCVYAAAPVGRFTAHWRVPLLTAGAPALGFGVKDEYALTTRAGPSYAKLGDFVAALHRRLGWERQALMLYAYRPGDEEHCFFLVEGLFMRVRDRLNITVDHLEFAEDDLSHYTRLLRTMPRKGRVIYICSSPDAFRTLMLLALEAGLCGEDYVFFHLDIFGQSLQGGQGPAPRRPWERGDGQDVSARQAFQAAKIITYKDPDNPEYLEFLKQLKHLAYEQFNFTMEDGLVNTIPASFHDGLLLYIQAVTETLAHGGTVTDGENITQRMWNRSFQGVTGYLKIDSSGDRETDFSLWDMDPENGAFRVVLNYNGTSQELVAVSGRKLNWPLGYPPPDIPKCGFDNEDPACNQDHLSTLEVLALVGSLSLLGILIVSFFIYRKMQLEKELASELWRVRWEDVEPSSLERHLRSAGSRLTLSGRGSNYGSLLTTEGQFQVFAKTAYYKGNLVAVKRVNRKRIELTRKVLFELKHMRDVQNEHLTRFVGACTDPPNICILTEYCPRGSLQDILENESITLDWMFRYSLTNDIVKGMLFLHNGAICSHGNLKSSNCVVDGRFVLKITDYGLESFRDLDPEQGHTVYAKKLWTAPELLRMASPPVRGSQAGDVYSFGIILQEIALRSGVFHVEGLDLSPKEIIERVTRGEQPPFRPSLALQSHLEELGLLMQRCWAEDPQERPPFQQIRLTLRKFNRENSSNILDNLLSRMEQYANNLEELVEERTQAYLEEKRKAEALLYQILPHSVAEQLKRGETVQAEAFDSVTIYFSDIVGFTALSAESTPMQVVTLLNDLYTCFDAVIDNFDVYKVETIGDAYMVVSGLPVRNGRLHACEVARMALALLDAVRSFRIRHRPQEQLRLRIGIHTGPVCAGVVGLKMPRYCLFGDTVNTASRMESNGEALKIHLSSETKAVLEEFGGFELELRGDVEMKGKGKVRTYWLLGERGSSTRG
#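 Compound pre-incubated 30 min at room temperature on GloSensor-loaded HEK293 cells stably carrying hNpr1 and the pGS-40F cGMP biosensor. Stimulation uses hNppA at 0.1 nM final; luminescence is taken at baseline and 20 min post-agonist.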
# Numbers without * were called inactive; u = inconclusive; & = joins results of further samples; [ ] = another dose, or the depositor's remark. % is set by controls: 0 for no effect and ±100 for the full control effect; potency is the fitted concentration of half-maximal effect. The list is partial; the hit share may differ from the screen's.
SMILES,NPR1 antag
COCC(=O)N1CCN(CC(=O)NCc2cccs2)[C@H]2CS(=O)(=O)C[C@H]21,-1%
Cc1ccc(C(=O)NC2CCN(c3cn[nH]c(=O)c3)CC2)cc1C,2%
O=C(NC1CCCCC1)[C@@H]1C[C@@H](O)CN1C1CCN(C(=O)c2ccc3ncccc3c2)CC1,4%
CC(=O)N1CCc2nn(CC(=O)Nc3cccc(Br)c3)c(=O)cc2C1,0%
CC(=O)c1cc(C(=O)N2C[C@H]3CC[C@@H]2CN(CCCc2ccccc2)C3)cs1,-1%
Cc1cc(C(=O)N2CC[C@H]3C(=O)NCCCCCCN(Cc4ccncc4)[C@@H]3C2)nn1C,5%
CCc1noc(-c2ccn3c(CNC(=O)c4ccc(F)cc4Cl)nnc3c2)n1,4%
Cc1noc(C)c1CO[C@@H]1COCC[C@H]1NC1CSCCSC1,-4%
O=C(Cn1ccn2nc(-c3ccccc3)c(CO)c2c1=O)N1CCCCCC1,-7%
O=C(Cn1nc2n(c1=O)CCCCC2)NCc1ccccc1Cl,3%
Cc1nc2c(c(-c3ccc(O)cc3)n1)CN(C(=O)c1ccccc1Cl)CC2,8%
Cc1noc(-c2ccc(N3CCN(C/C=C/c4ccccc4)CC3)nc2)n1,2%
CN1C[C@H](NCc2nccn2C)CCC[C@@H](C(=O)NCc2cc(F)cc(F)c2)CC1=O,-1%[70.6 µM]
CN(Cc1cccnc1)C1CN(C(=O)C2CCC2)C1,-1%
CCOc1ccccc1C1NC(=O)N(CC(=O)Nc2cccc(C)c2C)C2=C1C(=O)OC2 (stereo unspecified),-3%
CN(CC1CCOCC1)C(=O)c1cc(Cl)ccc1F,2%
COc1ccccc1-c1ccnc(N[C@H]2CO[C@H]3[C@@H]2OC[C@@H]3NC(=O)N2CCOCC2)n1,4%
O=C(Nc1ccccc1)N1CCC2(C1)C(=O)N(CCc1ccccc1)c1ccccc12 (stereo unspecified),0%&-1%
CNC(=O)[C@@H](C1CC1)N1CCC[C@H]1C(=O)NCC(C)C,-2%[70.6 µM]
COc1ccc(C2Cn3nnc(C(=O)N4CCC(C(=O)NCc5ccc(C)cc5)CC4)c3CO2)cc1 (stereo unspecified),-10%
O=C(c1coc(COc2cccc(C(F)(F)F)c2)n1)N1CCCCCCC1,1%
O=C(CN1C(=O)NC2(CCCCC2)C1=O)NCc1ccccc1,-8%
COC[C@@H]1CCCN1Cc1cn(Cc2ccccc2)nc1-c1cc2ccccc2o1,-10%
c1ccc(NCCn2cc(C3CCCNC3)nn2)cc1 (stereo unspecified),0%
CN(Cc1cccnc1)C(=O)CCC1CCN(S(=O)(=O)c2ccccc2)CC1,-2%
O=C(c1ccc(F)cc1Cl)N1Cc2cnn(Cc3ccc(F)cc3)c2C1,-14%
Cc1ccc(F)c(OC2(C(=O)O)CCN(c3cnc4ccccc4n3)CC2)c1,4%
CC(C)CCN1CCC(N2CCN(Cc3cccnc3)CC2)C1=O (stereo unspecified),3%
COCCC(=O)N[C@H]1CC[C@]2(C)CCC([C@H](C)C(=O)NCc3cc(F)cc(F)c3)[C@H](O)[C@H]2[C@@H]1C (stereo partly specified),7%
O=S(=O)(c1ccccc1C(F)(F)F)N1CCC(C2CCNC2)CC1 (stereo unspecified),5%
Nc1ncccc1CN1CCc2ncc(C(=O)NCCOc3ccccc3)n2CC1,-18%[70.6 µM]
COc1ccccc1OCCNC(=O)CCc1cc2cc(C)ccc2[nH]c1=O,3%
O=C(NCCc1ccccc1)C1CCN(C(=O)[C@H]2CCC[C@H](O)C2)CC1,3%
COc1ccc(F)cc1C(C(=O)O)N1CCCN(c2ncccn2)CC1 (stereo unspecified),4%
COCCOC1CCOC2(CCN(C(=O)Cc3c(C)noc3C)CC2)C1 (stereo unspecified),0%
O=C([C@@H]1C[C@H](Oc2ccccc2)CN1C(=O)Cc1c[nH]c2ccccc12)N1CCOCC1,8%
O=C(Nc1cccc(F)c1)N1CCC(OCCOc2cccnc2)CC1,0%
COc1ccc2cc(C(=O)N3CCC4(CC3)CC(O)CCO4)[nH]c2c1 (stereo unspecified),0%
Cc1nc(-c2ccc(OC3CCN(C(=O)NCC(C)C)C3)cc2)no1 (stereo unspecified),u
C[C@]1(CO)[C@H]2Cc3sc(NC(=O)c4ccc(F)cc4)nc3[C@@H](CC(=O)NCc3ccccc3)[C@]2(C)CC[C@H]1O,-11%
COc1ccc(CN2CCOC[C@H](OC)C2)cn1,1%[70.6 µM]
O=C1CCN(C(=O)C2CCCC2)CCCC(c2nc(-c3ccccc3)no2)CCN1 (stereo unspecified),-5%
COc1ccc(CNC(=O)c2noc(-c3ccc(C)cc3)n2)cc1,1%
O=C(NC1CC1)[C@@H]1C[C@H](Oc2cccnc2)CN1C(=O)CCc1c[nH]c2ccccc12,1%
CCc1noc(-c2cn(C3CCN(C(=O)c4cc(Cl)ccc4F)CC3)nn2)n1,5%
Cc1cc(C(=O)Nc2ccc([C@H]3OCC(=O)N(Cc4ccccc4)[C@@H]3CO)cc2)n(C)n1,1%[70.6 µM]
CCCc1noc(-c2ccn3c(CNC(=O)c4c(F)cccc4F)nnc3c2)n1,1%
CN(C)C(=O)C1CN(C(=O)c2ccccc2OC(F)(F)F)CC12CCOCC2 (stereo unspecified),5%
Cc1ccc(C(=O)N2CCc3sc(C(=O)NCc4cccc(F)c4)cc3C2)cc1,-3%
COc1ccc(S(=O)(=O)N2CCC3(CCC(=O)N(CC4CC4)CC3)CC2)cc1,0%
CCc1cccc2c(C(CC(=O)N3CCCC3)c3cccc([N+](=O)[O-])c3)c[nH]c12 (stereo unspecified),-13%
Cc1nnc([C@@H]2CC(F)(F)CN2C(=O)c2ccoc2)o1,6%
O=C(Cc1cccs1)Nc1ccc2c(N3CCCCC3)ncnc2c1,u
COc1ccccc1-n1cc(C(=O)N(C)Cc2noc3c2CCCC3)cn1,3%
Cc1cc(C[C@@H]2COC[C@@H]2NC(=O)c2cccc(-n3nc(C)cc3C)c2)on1,2%
CCn1ccnc1CN1CCCC(CCc2ccc(OC)cc2)C1 (stereo unspecified),-25%
COCc1ccc2c(c1)c(OC(C)(C)C(=O)NCCCN1CCCC1=O)nn2Cc1cccnc1,3%
COc1c(C)cnc(Cn2ccn3nc(-c4ccc(F)cc4)c(CO)c3c2=O)c1C,u
CCCS(=O)(=O)NCC(=O)N1CCCCCCNC(=O)CC1c1ccccc1 (stereo unspecified),-2%
O=c1c2ccccc2cnn1Cc1nc(-c2ccc3nc[nH]c3c2)no1,2%

# The list continues.
SMILES,NPR1 antag
Cc1cc2cc(-c3c(C)noc3C)nc(NCc3ccccc3)c2o1,-2%[70.6 µM]
COCCCNC(=O)C(NC(=O)c1ccc(C)cc1)C1CCN(C(=O)c2cccs2)CC1 (stereo unspecified),-12%
COC(=O)c1ccccc1NC(=O)Cn1ccn2nc(-c3ccc(F)cc3)c(CO)c2c1=O,-6%
COc1ccccc1CNC(=O)C1CCCN(C(=O)c2cccnc2)CCC(=O)NCC1 (stereo unspecified),-11%
O=C(NCCC1CCN(C(=O)Nc2cc(F)ccc2F)CC1)c1ccoc1,3%
COCc1nncn1C1CCN(S(=O)(=O)c2ccc(Cl)c(C)c2)CC1,-12%
CCCc1noc(-c2cccn3c(CNC(=O)c4ccc(N(C)C)cc4)nnc23)n1,-15%
COCc1cn(C[C@H]2C[C@@H](NC(=O)C(C)C)[C@H](O)[C@@H]2O)nn1,-12%[70.6 µM]
O=C(c1c[nH]c2ncccc12)N1CCN(Cc2ccccc2)CC1,13%[70.6 µM]
COC(=O)[C@@H](C)NC(=O)[C@H]1CN(C(C)=O)CCN1C(=O)C1CCCCC1,3%[70.6 µM]
O=c1c2c(n(Cc3cccnc3)n1-c1ccccc1)CN(CC1CCOCC1)CC2,3%[70.6 µM]
O=C(Cn1ccn2nc(-c3ccc(F)cc3)c(CO)c2c1=O)Nc1ccc2c(c1)CCC2,1%
CCc1nnc(NC(=O)C2c3ccccc3C(=O)N(CCOC)C23CCCCC3)s1 (stereo unspecified),-2%
CNCc1cn(C[C@H]2O[C@@H](CC(=O)N(C)Cc3ccccc3)[C@H](O)[C@@H]2O)nn1,5%[70.6 µM]
COc1ccc(CN2C(=Nc3ccc(OC)cc3)S[C@H]3[C@@H]2[C@@H](O)[C@H](O)C[C@@H]3C(N)=O)cc1,5%
Clc1ccc(-c2cnc([C@@H]3COCCN3Cc3csnn3)[nH]2)cc1,-25%[70.6 µM]
Cc1ccc(C(=O)NCCn2cccc2-c2nc(-c3ccccc3)no2)cc1F,1%
CCCC1c2nccn2CCCN1C(=O)Cn1c(=O)oc2ccccc21 (stereo unspecified),3%
CN1Cc2cccn2CC1CNC(=O)c1cc(CN2CCOCC2)on1 (stereo unspecified),-8%
Cn1nccc1C(=O)N1CCC(F)(c2nc(-c3ccccc3)no2)CC1,u
CCOc1nccn2c(-c3ccc(CNc4ccc(OC)nc4)cc3)cnc12,-14%[70.6 µM]
COc1ccc(NC(=O)N2C[C@@H](F)C[C@H]2C(=O)N2CCCCC2)cc1F,3%
Cc1c(CC(=O)NC(C)(C)CO)c2c(n1Cc1ccccc1F)CCCC2=O,4%
Cc1ccc(-n2cccc2CC(=O)N2CCCC2)cc1,-23%
O=C(c1nc(-c2ccc(F)cc2)c2cnccn12)N1CCOCC1,11%[70.6 µM]
Cc1cccc(CC(=O)N2CCCN(c3cc(-c4ccc(Cl)cc4)[nH]n3)CC2)c1,u
O=C(NCCc1nc(-c2cccnc2)no1)C1CC2(CCNCC2)CN1 (stereo unspecified),5%
COC1C(=O)N(C2CCN(S(=O)(=O)c3c(C)nn(C)c3C)CC2)C12CCOCC2 (stereo unspecified),6%
CC(=O)c1ccc(NC(=O)N[C@H]2CCN3C(=O)[C@@H](Cc4ccccc4)NC(=O)[C@H]23)cc1,-2%[70.6 µM]
Cc1nc(CN2Cc3nc(-c4ccccc4)ccc3OCC2=O)cs1,5%[70.6 µM]
CC1CCN(CCCNC(=O)C2CCc3sc(C(=O)N4CCCC4)cc3C2)CC1 (stereo unspecified),12%
CN(Cc1ccc2nsnc2c1)C(=O)c1cccc(-n2cnnc2)c1,7%
CC1(c2ccccc2)N(Cc2ccc(O)cc2)C(=O)OC12CCN(Cc1ccncc1)CC2 (stereo unspecified),1%
O=C1NCN(Cc2ccc(Cl)cc2)C12CCN(Cc1ccsc1)CC2,11%
COc1ccc(NC(=O)Cn2c(C)cc3nc4n(c(=O)c32)CCCCC4)cc1OC,4%
O=C(NC1CCN(c2nc3ncccc3o2)CC1)c1ccc(F)cc1,-3%[70.6 µM]
COc1ccc(CN2C(=O)COC[C@H]2C(=O)NCCc2cccc(C)c2)c(OC)c1,-2%
CCN1c2cc(C(=O)Nc3ccc(SC)cc3)ccc2C(=O)N2CCCCCC21 (stereo unspecified),-19%
O=C(N[C@@H]1CN(C(=O)C2CC=CC2)CC[C@@H]1CO)C1CC1,2%
O=C1CO[C@H]2CCN(Cc3cccs3)CC[C@@H]2N1Cc1c[nH]c2ccccc12,0%[70.6 µM]
Cc1cccc(C(=O)NCc2nnc3c(-c4nc(C(C)C)no4)cccn23)c1,6%
O=C(O)CCC(=O)N1C[C@@H]2C[C@H]1C(=O)N(Cc1ccccc1)c1ccccc1O2,0%[70.6 µM]
COCCNC(=O)[C@H]1C[C@H](Oc2ccccc2)CN1Cc1cccc(F)c1,-2%
c1ccc(Cn2nc(C3CCOCC3)nc2C2CCC2)cc1,-14%
COc1cc(Cl)ccc1C(=O)N1CCN(c2cc(C(F)(F)F)ncn2)CC1,-11%
CC(=O)c1cc(C(=O)N2CCC3(CC2)Nc2ccccc2NC3=O)[nH]n1,-3%
O=C(NCCc1ccccc1)c1cnc2n[nH]c(-c3ccccc3)c2n1,-17%[70.6 µM]
CC(C)N1CCN(C2CCOC3(CCN(C(=O)NCc4ccccc4)CC3)C2)CC1 (stereo unspecified),0%
COC[C@@H]1CN(C(=O)Cc2cccc(OC)c2)C[C@H]1c1nc(C)no1,1%
C[S+](=O)([O-])N1Cc2ccccc2CC12CN(C(=O)Nc1ccccc1)C2,9%
Cc1ccsc1-c1[nH]nc2ncc(-c3ccc(CO)cc3)nc12,-16%[70.6 µM]
CCN(CC)Cc1cc(-c2nc(C3CCOC3)no2)c(-c2ccccc2)o1 (stereo unspecified),-3%
O=C(c1ccccn1)N1CCCC(c2nc(CCOCC3CCOCC3)no2)C1 (stereo unspecified),1%
O=C(NCCC1CCN(C(=O)Nc2ccc(F)cc2F)CC1)c1cc(F)ccc1F,1%
